H5N1 CPE – MDCK cell protection from H5N1 avian flu; cytopathic effect, luminescence, 72 h; hits give high values; no value below 0 was filed and about half of the inactive calls have no number; reference of the scale not given here; actives 0.07% (n = 96,000); inhibition, % at 50 µM; AID 740; in the data active means inhibition above about 25%
* hit, by the source's call; i = inactive. Some of the compounds tested; count on the stated rates, not on these rows.

SMILES,H5N1 CPE
FC(F)(F)c1cc(-c2ccco2)nc(N2CCN(c3ccccc3)CC2)n1,i
COc1ccccc1-n1cnc2cc(C(=O)NCCCN3CCOCC3)ccc21,0.8
CCn1cc(C(=O)C(F)(F)F)c2ccccc21,1.7
Cc1ccc2c(CC(=O)O)coc2c1,0.8
CCC1(C)N(O)C(C)(C)C(c2ccc(OC)cc2)=[N+]1[O-] (stereo not drawn),i
Cc1ccccc1-c1n[nH]c(=S)o1,0.7
CCOc1ccc(NS(=O)(=O)CC23CCC(CC2=O)C3(C)C)cc1 (stereo not drawn),0.7
CCOC(=O)CC(=O)CSc1nnc2sc3ccccc3n12,6.2
COc1cccc(CSc2nc3sc(C)c(C)c3c(=O)n2Cc2ccco2)c1,i
COc1ccc(N2CCN(C(=O)CC(NC(N)=O)c3cccc(Oc4ccccc4)c3)CC2)cc1 (stereo not drawn),2.4
CCOc1ccc(S(=O)(=O)Nc2cc(Cl)ccc2O)cc1,i
CSc1nc(-c2ccco2)nn1C(=O)Cc1ccccc1,i

(listing goes on)
SMILES,H5N1 CPE
C=CCn1c(Cc2nc3ccc(Cl)cc3[nH]2)n[nH]c1=S,0.3
CC(=O)Nc1nc(C)c(-c2csc(Nc3ccc(O)cc3)n2)s1,i
CC(=O)Nc1ccc(N2CCCCC2)cc1,0.3
CCCCc1[nH]nc2c1C1(C(=O)N(CC)c3ccccc31)C(C#N)=C(N)O2 (stereo not drawn),0.5
CCOc1ccccc1N(CC(=O)O)S(=O)(=O)c1ccc(C)cc1,1.9
Cc1nc2cccc(C(=O)NCc3ccccc3)c2o1,1.4
CCOc1ccc(OC(=O)C(CCS(C)(=O)=O)N2C(=O)c3ccccc3C2=O)cc1 (stereo not drawn),0.4
C=CCn1c(SCC(=O)NCc2ccco2)nc2sc3c(c2c1=O)CCC3,1.0
Cc1nn(C)c(Oc2ccccc2)c1CCNS(=O)(=O)c1ccc(Cl)cc1,i
COc1cc2c3nnc(-c4ccc(F)cc4)c-3cn(Cc3cccc(C)c3)c2cc1OC,i
CNc1nc(Sc2cccc(C(F)(F)F)c2)cc(C(F)(F)F)n1,i
Cc1ccc2c(c1)N(Cc1ccc3c(c1)OCO3)C(=O)C(C)O2 (stereo not drawn),i

Remaining list, next part.
SMILES,H5N1 CPE
CCOC(=O)c1sc(NC(=O)c2sccc2C)cc1C,i
COc1ccc(C2C=C(c3ccc(Br)s3)Nc3ncnn32)cc1OC (stereo not drawn),i
Cn1c(SCC(=O)N2c3ccccc3Sc3ccc(Cl)cc32)nnc1-c1ccco1,2.0
Cc1ccc(-c2nnc(SCC(=O)N3CCCc4ccccc43)n2N)cc1,i
CC1CCCC(C)N1C(=O)Nc1cccc(Cl)c1 (stereo not drawn),i
COc1ccc(S(=O)(=O)N2CCOCC2)cc1C(=O)Nc1ccon1,i
CCOC(=O)N1CCC(c2nc(C)sc2C(=O)O)CC1,i
Cc1ccc(NCc2nnc(SCC(N)=O)n2CCc2ccccc2)cc1,0.9
CCN1C(=O)/C(=C/N2CC(C)CC(C)C2)SC1=S (stereo not drawn),3.7
COCC(=O)n1nc(-c2ccc(Cl)cc2)nc1NCc1ccc(F)cc1,i
Cn1c(C(=O)NCCN2CCc3ccccc3C2)cc2c(=O)n(C)c3ccccc3c21,i
Cc1cc2n(n1)C(c1cn(-c3ccccc3)nc1C)Nc1ccccc1-2 (stereo not drawn),i

Some values from the list.
H5N1 CPE, CC(=O)Nc1ccc(N2CCCCC2)cc1 reads 0.3
H5N1 CPE, CCCCc1[nH]nc2c1C1(C(=O)N(CC)c3ccccc31)C(C#N)=C(N)O2 (stereo not drawn) reads 0.5

The listing continues.
SMILES,H5N1 CPE
COC(=O)CSc1nc(N)nc(C)c1Br,i
NC(=O)CNC(=O)[C@@H]1CC2(CC(c3ccc(Cl)cc3)=NO2)CN1C(=O)c1ccc(Br)cc1 (stereo partly drawn),i
O=C(Nc1ccccc1-c1nnn(CC(=O)N2CCc3ccccc3C2)n1)C1CCC1,i
O=C(C1CCCN(Cc2cccc(F)c2)C1)N1CCCCC1 (stereo not drawn),i
Cc1ccccc1-c1nc(CS(=O)(=O)CC(=O)NCCCN2CCCC2=O)c(C)o1,0.9
CNC(=S)NNC(=O)c1sccc1OCc1ccc(Cl)cc1Cl,0.6
CCN(CC)S(=O)(=O)c1ccc2oc(C(=O)NC(C)C)c(C)c2c1,2.0
Cc1oc(C(=O)O)cc1COc1cccc2cccnc12,0.2
Cc1nc(N2CCOCC2)nc(N2CCN(c3ccccc3)CC2)c1[N+](=O)[O-],0.4
O=S1(=O)CCC(NS(=O)(=O)/C=C/c2ccccc2)C1 (stereo not drawn),i
Cc1ccc2oc(=O)c3cnn(CC(=O)NCCN(C)C)c3c2c1,0.1
O=Nc1c(O)n(Cc2cccc(Cl)c2)c2ccccc12,3.2

Following part
SMILES,H5N1 CPE
Cc1ccccc1C(=O)Nc1ccc(C(=O)NNC(=O)CCCOc2ccc(Cl)cc2Cl)cc1,0.5
CCC(=O)N1CCc2cc(S(=O)(=O)CCC(=O)Nc3ccc(CC)cc3)ccc21,i
CC(C)c1ccc2c(c1)C(c1ccc(N3CCOCC3)cc1)=NNC(c1cccs1)=N2,i
COc1ccccc1N1CCN(C(=O)c2cc(-c3ccco3)on2)CC1,i
Cc1ccc(-c2cc(C(=O)N/N=C/c3c(C)nn(-c4ccccc4)c3C)[nH]n2)cc1,i
Cc1nc(/N=C\N(C)C)sc1C(=O)Nc1ccccc1,0.2
Cc1ccc(C(C(=O)NC2CCCCC2)N(CCC(C)C)C(=O)CNC(=O)c2ccco2)o1 (stereo not drawn),i
CSc1ncccc1-c1nc2ccccc2[nH]1,i
COc1ccc(CN2CCN(C(=O)c3cccnc3)CC2)cc1Br,0.5
O=C(Oc1cccnc1)c1cc(S(=O)(=O)N2CCCCC2)ccc1Cl,i
CCOc1ccc(-n2c(=S)sc3c(=O)[nH]c(SCC(=O)NCc4ccco4)nc32)cc1,0.2
COc1cccc(C(=O)Nc2cc(=O)n(C)c(=O)n2C)c1OC,i

(next part)
SMILES,H5N1 CPE
Cc1c(N=Cc2cccs2)c(=O)n(-c2ccccc2)n1C,0.1
CC1(C)CC(=O)C(C=NCC(O)c2ccccc2)=C(O)C1 (stereo not drawn),i
c1ccc(OCCOCCN2CCOCC2)cc1,1.2
CC(=O)c1cccc(NC(=O)C2CCCN2S(=O)(=O)c2cccc3cccnc23)c1 (stereo not drawn),1.3
CCN1CCN(C(c2ccccc2)c2nnnn2CCc2ccc(OC)c(OC)c2)CC1 (stereo not drawn),0.6
c1ccc2c(CSCc3nc4ccccc4[nH]3)cccc2c1,i
Cc1nc2ccccc2c2nc(NC(=O)Cc3ccccc3)nn12,i
O=C(Nc1ccc(Cl)cc1)NC1CCS(=O)(=O)C1 (stereo not drawn),0.9
COC(=O)c1ccc(OC)c(CSc2nnc(COc3ccc(OC)cc3)o2)c1,0.1
CC(=O)Nc1ccccc1OP1(=O)COc2ccccc2OC1,i
COc1ccc(S(=O)(=O)NCCSCc2ccco2)cc1OC,0.9
Cc1ccc(N(CC(=O)Nc2cc(Cl)ccc2Oc2ccccc2)S(C)(=O)=O)cc1C,i

Remaining list, next part:
SMILES,H5N1 CPE
CS(=O)(=O)N1CCCC(C(=O)N2CCC3(CC2)OCCO3)C1 (stereo not drawn),i
CC1Cc2ccccc2N1C(=O)CN(C)S(=O)(=O)c1cccc2cccnc12 (stereo not drawn),1.6
O=C(C1CC(=O)N(C2CCCCCCC2)C1)N1CCC2(CC1)OCCO2 (stereo not drawn),i
COc1c(Cl)ccc(Cl)c1C(=O)NC(=O)N1CCOCC1,i
O=C(Nc1cccnc1)c1cc(-c2cccs2)on1,1.6
COCCNC(=O)C1CCC(=O)N(c2ccc(OC)cc2)C1c1ccc(OC)c(OC)c1 (stereo not drawn),0.9
CCOC(=O)c1nnc(-c2ccc(C)cc2)nc1Sc1ccc(Cl)cc1,7.2
Cn1c(=NC(=O)c2cnccn2)sc2ccccc21,i
O=C(OCc1c(Cl)nc2sccn12)c1cc2c(s1)CCCC2,i
CCOC(=O)N1CCN(C(=O)CCn2c(=S)[nH]c3cc(OCC)c(OCC)cc3c2=O)CC1,1.3
COc1cc(OC)cc(OCC(O)Cn2ccnc2C)c1 (stereo not drawn),1.2
COC(=O)CSc1nc(C)cc(C(F)(F)F)c1C#N,1.2

(more compounds)
SMILES,H5N1 CPE
Nc1c(C(=O)NCc2ccc3c(c2)OCO3)c2nc3ccccc3nc2n1CCCN1CCOCC1,i
Cc1nc2ccccc2nc1CSc1nncs1,i
O=C(CN1CCCC1)Nc1ccc(NC(=O)Nc2ccccc2)cc1,i
O=C(CSc1ncn[nH]1)N1CCN(c2nnc(-c3ccccc3)c3ccccc23)CC1,1.0
COc1ccc(C2C(C(=O)OCC(=O)Nc3ccc(C)cc3)CCC(=O)N2c2ccc(OC)cc2)cc1 (stereo not drawn),i
O=C(COc1ccc(Cl)cc1)N1CCN(S(=O)(=O)c2ccc(Cl)cc2)CC1,i
O=c1[nH]cnc2c1sc(=S)n2-c1ccccc1,i
CCC(Sc1nc2ccccc2c(=O)[nH]1)C(=O)O (stereo not drawn),i
Cc1ccc(C)c2[nH]c(=O)c(CN(CCN3CCOCC3)Cc3nnnn3CC3CCCO3)cc12 (stereo not drawn),1.1
Cc1nc(S/C(=C/c2ccc(-c3ccc(Cl)cc3)o2)C(=O)O)n[nH]1,i
COc1ccccc1NC(=O)NCC(=O)Nc1ccc(F)c(F)c1,i
O=C(c1ccccc1-c1nc2ccccc2[nH]1)N1CCOCC1,0.2

The results go on:
SMILES,H5N1 CPE
O=C(/C=N/O)NCCN1CCCCC1,0.8
CC(=O)NC(=S)Nc1ccc(NC(=O)COc2ccc(Cl)cc2Cl)cc1,i
CC1(C)CC(=O)c2cc(OCC(=O)NCCN3CCCc4ccccc43)ccc2O1,i
COc1ccc(S(=O)(=O)Nc2cccc(C)n2)c2ccccc12,1.8
COC(=O)N1CN(C(=O)OC)CN(C(=O)OC)C1,i
O=C(c1ccco1)N1CCN(C(=O)C2CCCO2)CC1 (stereo not drawn),i
CC(C)Sc1nc(SCC(=O)NCc2ccco2)c2c3c(sc2n1)COC(C)(C)C3,0.3
COc1ccc(CCNC(=O)c2ccn[nH]2)cc1OC,i
CN1CCN(C(=O)Cn2c(=O)oc3cc(S(=O)(=O)NCc4ccccc4)ccc32)CC1,i
CC(CNC(=O)c1cncc(O)c1)NC(=O)c1cncc(O)c1 (stereo not drawn),i
N#CC1=C(SCC(N)=O)NC(=O)CC1c1ccccc1Cl (stereo not drawn),2.1
CCOc1[nH]n(-c2ccc(Cl)cc2)c(=O)c1C=Nc1ccc(O)cc1,i

Molecules above with bromine (4):
SMILES,H5N1 CPE
COc1ccc(C2C=C(c3ccc(Br)s3)Nc3ncnn32)cc1OC (stereo not drawn),i
COC(=O)CSc1nc(N)nc(C)c1Br,i
NC(=O)CNC(=O)[C@@H]1CC2(CC(c3ccc(Cl)cc3)=NO2)CN1C(=O)c1ccc(Br)cc1 (stereo partly drawn),i
COc1ccc(CN2CCN(C(=O)c3cccnc3)CC2)cc1Br,0.5

In another format: four of the compounds above
structure: COC(=O)N1CN(C(=O)OC)CN(C(=O)OC)C1
  H5N1 CPE = i

structure: O=C(c1ccco1)N1CCN(C(=O)C2CCCO2)CC1 (stereo not drawn)
  H5N1 CPE = i

structure: CC(C)Sc1nc(SCC(=O)NCc2ccco2)c2c3c(sc2n1)COC(C)(C)C3
  H5N1 CPE = 0.3

structure: COc1ccc(CCNC(=O)c2ccn[nH]2)cc1OC
  H5N1 CPE = i

The results go on.
SMILES,H5N1 CPE
COc1ccc(-c2nnc(SCC(=O)Nc3nc4ccccc4s3)n2C)cc1,i
Cc1nc(SCC(=O)Nc2c(C)nn(C)c2C)c2cnn(-c3ccccc3)c2n1,i
CCN1CCN(c2ccc(NC(=O)Cc3ccccc3)cc2)CC1,i
CCc1ccc2c(c1)cc(CN(C(=S)Nc1cccc(C)c1)C1CC1)c1nnnn12,0.0
CCCCCCn1cc(C(=O)O)c(=O)c2ccccc21,0.3
O=C(CCN1C(=O)c2ccccc2C1=O)NCc1ccco1,1.1
CCn1c(SCC(=O)NC(=O)Nc2ccc3c(c2)OCCO3)nnc1-c1cccs1,i
Cc1ccc(SCc2nc(-c3cccnc3)no2)cc1,0.6
COc1ccc(CNC(=O)c2onc(C)c2Cl)cc1,0.5
CCOC(=O)C1=C(C)NC(=O)NC1c1ccccc1OCc1c(F)cccc1Cl (stereo not drawn),1.4
COc1cc(NC(=O)CSc2nccc(C)n2)c(C(=O)O)cc1OC,i
Cc1cccc(NC(=S)NNC(=O)c2ccc(Br)o2)c1,i

The listing continues:
SMILES,H5N1 CPE
CC(=Nc1ccc(C)cc1)c1sc2ccccc2c1O,1.1
CCOC(=O)C1=C(N)n2c(s/c(=C/c3ccco3)c2=O)=C(C(=O)OC)C1c1ccco1 (stereo not drawn),i
CC1(C)CC(=O)C(Sc2nnc(-c3ccc(NS(C)(=O)=O)cc3)n2Cc2ccco2)C(=O)C1,0.2
COC(=O)c1cccc(-n2nnnc2SCC(=O)Nc2cc(C)on2)c1,i
Cc1cc(C)c(C(=O)/C=C/c2ccc(C(C)C)cc2)c(=O)[nH]1,1.6
O=S1(=O)C=CC(N2CCOCC2)C1 (stereo not drawn),i
COc1cccc2c1OC1(C)CC2NC(=O)N1c1cccc(C(=O)N2CCN(c3ccccn3)CC2)c1 (stereo not drawn),1.6
O=C1/C(=C/c2ccccc2)Nc2ccccc21,i
Cc1ccc(N(CC(=O)NC2CCCCC2)C(=O)c2ccc(C)s2)cc1,1.8
Cc1cc(C)nc(NC(=NCc2ccc3c(c2)OCO3)NC(=O)Nc2ccccc2)n1,0.4
O=C(O)C1C(c2ccccc2)C(C(=O)Oc2ccc(O)cc2)C1c1ccccc1 (stereo not drawn),0.2
CCN=C(N/N=C/c1ccc([N+](=O)[O-])cc1)SC,i

From PubChem BioAssay
